Autofluor counter: compound fluorescence in toxin protease inhibitor counterscreen. compound autofluorescence counterscreen, microsphere flow cytometry; active compounds read high. fluorescence intensity (test concentration not listed). 360,000 compounds, 3.1% hits. AID 624483;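 active = at least 3 SD above the mean of all compounds, about 16000 in these data; inconclusive = too few beads counted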;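 note: 100 nL of 1 mM stock went into each well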
Sa RN4220 lethal: kills Staphylococcus aureus RN4220. S. aureus RN4220 growth, OD600, 16 h. inhibition, % (concentration not given with the values). 330,000 compounds, 0.33% hits;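 active = z-score of -3 or lower and OD600 up to 0.18 on both plates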;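 note: plate controls were untreated cells for no effect and reference antibiotic for full effect; stock transfer was 100 nL into about 80 µL; one replicate is shown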
Mtb hypoxia rep: Mtb hypoxia fluorescent reporter inhibition. M. tuberculosis hypoxia-regulated fluorescent reporter, fluorescence. 300,000 compounds, 0.1% hits. fluorescence inhibition, % (concentration not given with the values);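 active = 35 to 45% if threefold the growth effect, above 45% if 1.5-fold the growth effect; inactive = the rest, general growth blockers included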;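 note: wells of about 50 µL received 100 nL stock; 0% = vehicle wells and 100% = reference inhibitor wells; whole bacteria with a GFP reporter of the hypoxia response; strong numbers were not always called active; many hits fall short of the cut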
PrP UTR inh: inhibition of PrP 5' UTR reporter expression | cell-based PrP 5' UTR mRNA reporter, plate reader | inhibition, % (no concentration beside the values) | 340,000 compounds, 0.35% hits;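 active = every replicate at 50% or more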;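 note: 0 = median of the neutral control wells; tested in H4 reporter cells; numbers are from one replicate; inactives centre near -14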
Sa ugtP lethal: growth inhibition of S. aureus ugtP deletion strain; S. aureus RN4220 ugtP deletion, OD600 growth, 16 h; some inactives read as strong as hits; growth inhibition, % (concentration not given with the values); 330,000 compounds, 0.54% hits;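 active = z-score under -3 and OD600 up to 0.15 on both plates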;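 note: plate controls were untreated wells for no effect and antibiotic for full effect; wells of about 80 µL received 100 nL stock; the first replicate is given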
BJeLR lethal: kills HRASV12-expressing BJeLR cells; BJeLR (HRASV12) viability, CellTiter-Glo ATP luminescence, 48 h; reference of the scale not given here; inhibition, % (no concentration beside the values); 300,000 compounds, 0.17% hits; AID 1554;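 active = replicate mean above 50%; inconclusive = above 50% but judged a plate artefact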;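 note: 50 nL library stock added to about 25 µL; numbers are from one replicate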
Mtb hypoxia rep growth: second read-out of Mtb hypoxia rep, no call of its own (marks repeat the call); growth inhibition, %; measured here: M. tuberculosis growth (absorbance);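 0% = vehicle and 100% = reference antibiotic; read after six days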
Active calls of the source: *; u = inconclusive; x = no result given.

cpd	SMILES	Autofluor counter	Sa RN4220 lethal	Mtb hypoxia rep	Mtb hypoxia rep growth	PrP UTR inh	Sa ugtP lethal	BJeLR lethal
1	CN(Cc1ccccc1)c1nc(-c2ccc([N+](=O)[O-])cc2)nc2ccccc12	3992	-8.1	x	x	-13.4	-3.9	0.5
2	O=C(CN1CCOCC1)Nc1ccc(N2CCN(c3ccccc3)CC2)c(F)c1	4483	3.7	-0.6	12.9	1.7	-2.1	-8.7
3	O=C1CSC(c2ccccn2)N1c1ccc2ccccc2c1 (configuration not stated)	6009	4.2	18.0	6.5	-35.7	8.4	0.9
4	Cc1cc(C)c(OCCCn2ccnc2)c(C)c1	3947	9.1	-1.4	9.5	-4.3	9.6	17.6
5	CCC(C)NC(=O)c1ccc2c(SCC(=O)O)c3c(nc2c1)CCCC3 (configuration not stated)	2224	3.5	14.1	2.4	-23.1	5.3	11.8
6	COc1ccc(/C=C/C(=O)Nc2nonc2NC(C)=O)cc1	2493	x	x	x	-48.0	x	2.2
7	C=CCc1ccc(OCCN2CCc3ccccc3C2)c(OC)c1	5555	11.9	4.0	5.9	-16.9	10.5	4.6
8	OC(COc1ccc2c(c1)OCO2)CN1CCCCC1 (configuration not stated)	4119	3.5	-5.5	-3.4	-19.1	2.0	-0.2
9	Cc1cc2ccccc2cc1CN1CCOCC1	6813	6.3	8.5	2.4	-14.2	11.1	2.5
10	O=C1CCCN1CC(O)CS(=O)(=O)c1ccccc1 (configuration not stated)	10281	3.3	3.9	5.7	-10.5	2.4	12.0
11	O=C(NC1CCCCNC1=O)c1ccccc1 (configuration not stated)	3632	0.6	2.2	11.4	-23.1	1.6	-0.7
12	COc1cc2c3c(c1)C(C)=CC(C)(C)N3C(=O)C2=O	4223	7.2	-1.2	5.5	79.5*	-0.2	13.5
13	CCCCC1=CC2=CC(=O)C(C)(OC(=O)CC)C(=O)C2=CN1Cc1ccc(OC)cc1 (configuration not stated)	3524	8.3	12.4	7.7	-14.1	-0.2	-10.9
14	COc1cc(/C=N/NC(=O)c2sc3nc(C)cc(C)c3c2N)ccc1O	5260	x	x	x	-13.6	x	2.0
15	COc1ccc(C=NNc2ccc([N+](=O)[O-])cc2S(=O)(=O)N2CCN(C)CC2)cc1	x	-2.7	-3.6	2.9	x	0.6	x
16	N=C1/C(=C\c2ccc(-c3cc(Cl)cc(Cl)c3)o2)C(=O)N=C2SC=C(c3ccccc3)N12	2515	3.8	-1.5	5.2	-21.1	-5.2	-8.9
17	Cc1ccc(NC(=O)c2cc(S(=O)(=O)N3CCCCC3)c[nH]2)cc1C	5424	2.1	0.7	-0.9	-34.2	10.1	1.9
18	CN(C)c1ccc(/C=C(/NC(=O)c2ccccc2Cl)C(=O)NCCN2CCOCC2)cc1	4266	3.5	10.2	4.9	9.7	3.8	-3.5
19	Cc1ccc(N(C(=O)C2CCC(=O)N2)C2(C(=O)NC3CCCC3)CCCCC2)cc1 (configuration not stated)	4190	-0.8	19.4	12.5	-18.9	1.5	-7.4
20	O=C(c1ccc2c(c1)OCO2)N1CCCC(c2ccccc2)C1 (configuration not stated)	10760	7.8	16.0	15.6	-21.4	3.9	-2.4

Ordered by molar mass (lowest first): twelve of the compounds above
cpd	SMILES	Autofluor counter	Sa RN4220 lethal	Mtb hypoxia rep	Mtb hypoxia rep growth	PrP UTR inh	Sa ugtP lethal	BJeLR lethal
11	O=C(NC1CCCCNC1=O)c1ccccc1 (configuration not stated)	3632	0.6	2.2	11.4	-23.1	1.6	-0.7
9	Cc1cc2ccccc2cc1CN1CCOCC1	6813	6.3	8.5	2.4	-14.2	11.1	2.5
4	Cc1cc(C)c(OCCCn2ccnc2)c(C)c1	3947	9.1	-1.4	9.5	-4.3	9.6	17.6
8	OC(COc1ccc2c(c1)OCO2)CN1CCCCC1 (configuration not stated)	4119	3.5	-5.5	-3.4	-19.1	2.0	-0.2
10	O=C1CCCN1CC(O)CS(=O)(=O)c1ccccc1 (configuration not stated)	10281	3.3	3.9	5.7	-10.5	2.4	12.0
6	COc1ccc(/C=C/C(=O)Nc2nonc2NC(C)=O)cc1	2493	x	x	x	-48.0	x	2.2
3	O=C1CSC(c2ccccn2)N1c1ccc2ccccc2c1 (configuration not stated)	6009	4.2	18.0	6.5	-35.7	8.4	0.9
5	CCC(C)NC(=O)c1ccc2c(SCC(=O)O)c3c(nc2c1)CCCC3 (configuration not stated)	2224	3.5	14.1	2.4	-23.1	5.3	11.8
13	CCCCC1=CC2=CC(=O)C(C)(OC(=O)CC)C(=O)C2=CN1Cc1ccc(OC)cc1 (configuration not stated)	3524	8.3	12.4	7.7	-14.1	-0.2	-10.9
15	COc1ccc(C=NNc2ccc([N+](=O)[O-])cc2S(=O)(=O)N2CCN(C)CC2)cc1	x	-2.7	-3.6	2.9	x	0.6	x
18	CN(C)c1ccc(/C=C(/NC(=O)c2ccccc2Cl)C(=O)NCCN2CCOCC2)cc1	4266	3.5	10.2	4.9	9.7	3.8	-3.5
16	N=C1/C(=C\c2ccc(-c3cc(Cl)cc(Cl)c3)o2)C(=O)N=C2SC=C(c3ccccc3)N12	2515	3.8	-1.5	5.2	-21.1	-5.2	-8.9

(further entries)
cpd	SMILES	Autofluor counter	Sa RN4220 lethal	Mtb hypoxia rep	Mtb hypoxia rep growth	PrP UTR inh	Sa ugtP lethal	BJeLR lethal
21	CCOC(=O)[C@H](CCc1ccccc1)N[C@H]1CCc2ccccc2N(CC(=O)O)C1=O	5598	x	x	x	6.1	x	-2.2
22	O=C(c1ccco1)N1CCN(Cc2nc3ccc([N+](=O)[O-])cc3c(=O)n2-c2ccccc2F)CC1	7012	3.2	4.5	9.9	-19.5	13.1	-2.0
23	CCOc1cc(C(c2c(C)[nH][nH]c2=O)c2c(C)[nH][nH]c2=O)ccc1O	2258	4.6	-1.2	0.9	-17.6	17.0	-7.4
24	Cc1ccc2nc(N=C(N)NC(=O)N3c4ccccc4Sc4ccccc43)nc(C)c2c1	x	12.1	5.4	13.5	x	-6.6	x
25	FC(F)(F)c1cc(CCN2C(=S)NC[C@@H]2Cc2ccccc2)cc(C(F)(F)F)c1	4566	x	x	x	-32.8	x	-10.4
26	COC(=O)c1ccccc1NC(=O)CSc1nc(O)c(-c2ccccc2)c(=O)[nH]1	4240	1.1	1.5	16.0	-14.2	-4.5	4.3
27	Cc1sc2cc3c(c(C(=O)c4ccccc4)[n+]2c1C)-c1cccc2cccc-3c12	x	100.1*	x	x	x	100.1*	68.0*
28	N#C/C(=C(/O)c1ccc(S(=O)(=O)N(CCCl)CCCl)cc1)c1nc2ccccc2[nH]1	4380	4.4	0.8	-6.4	-30.7	8.9	-3.0
29	O=C(Nc1ccc2[nH]c(=O)[nH]c2c1)c1ccc(Cl)c(Cl)c1	4621	2.9	2.7	-0.3	-28.2	6.8	-8.2
30	CC(C)NC(=O)NC(=O)COC(=O)c1ccc(S(=O)(=O)NCc2ccco2)cc1	3632	2.9	-6.2	3.0	-3.7	-4.2	x
31	Cc1ccc(C(=O)N/N=C\c2sccc2C)cn1	2036	x	x	x	-24.5	x	2.5
32	CS(=O)(=O)C1=NSC2=NC(=O)/C(=C\c3ccc(OC(=O)c4ccco4)c(Br)c3)C(=N)N21	5496	3.1	1.8	0.1	-22.5	1.8	-1.7
33	Cc1cc(C(=O)OCC(=O)c2cccc([N+](=O)[O-])c2)c2cccc(C)c2n1	4293	1.2	x	x	-0.6	0.8	2.1
34	CC(=O)NCC(=O)OCC(=O)Nc1ccc(C(C)=O)cc1	4779	3.9	x	x	8.2	9.8	-14.1
35	CC1=C(c2ccccc2)CCC1=O	4307	4.4	6.4	2.2	-16.6	1.6	-4.3
36	CC12CC3(C)CC(C)(C1)CC(C(=O)NC(=S)NC(C)(C)C)(C2)C3	2475	-0.6	2.4	7.3	1.8	2.8	-1.5
37	O=C(Nc1ccc(N2CCOCC2)c(Cl)c1)c1ccc([N+](=O)[O-])o1	2138	64.9	25.1	29.5	-27.4	96.4*	-15.7
38	O=C(O)CCCn1nc(-c2ccccc2)c2ccccc21	5559	4.3	2.6	1.7	-18.3	-9.2	5.6
39	C[N+]1(CC(=O)Nc2ccc(F)cc2)CCN(C(=O)c2ccco2)CC1	16539*	-0.8	3.2	-0.8	-3.2	0.5	2.5
40	O=C(CCC(=O)Nc1ccccc1)NNS(=O)(=O)c1ccc(Cl)cc1	u	2.8	10.3	8.3	-18.7	6.0	x

Part of the list above, limited to Autofluor counter, BJeLR lethal and PrP UTR inh:
item | Structure | Autofluor counter | BJeLR lethal | PrP UTR inh
37 | O=C(Nc1ccc(N2CCOCC2)c(Cl)c1)c1ccc([N+](=O)[O-])o1 | 2138 | -15.7 | -27.4
23 | CCOc1cc(C(c2c(C)[nH][nH]c2=O)c2c(C)[nH][nH]c2=O)ccc1O | 2258 | -7.4 | -17.6

The list goes on:
cpd	SMILES	Autofluor counter	Sa RN4220 lethal	Mtb hypoxia rep	Mtb hypoxia rep growth	PrP UTR inh	Sa ugtP lethal	BJeLR lethal
41	CCC(NS(=O)(=O)c1ccc(C)cc1)C(=O)N1CCC2(O)CCCCC2C1 (configuration not stated)	2428	2.2	x	x	-16.4	5.2	-3.6
42	COc1cc(C(=O)NCC2CCCCC2)ccc1OCc1c(C)noc1C	7904	1.2	2.1	-0.8	-19.8	1.1	x
43	N#Cc1c(NC(=O)CSc2nc(-c3ccccc3)cc(C(F)(F)F)n2)sc2c1CCC2	2460	-0.5	4.6	-1.6	0.7	10.5	4.3
44	CCCCC(CC)C(=O)Oc1ccc(O)c(C(C)(C)C)c1 (configuration not stated)	3598	x	x	x	1.9	x	-3.7
45	O=C(Nc1ccc(SC(F)F)cc1)C1CC(=O)N(Cc2ccccc2)C1 (configuration not stated)	5856	-1.6	14.7	6.3	-4.9	-5.4	-5.2
46	Fc1ccc2[nH]c3c(c2c1)CN(C(=S)NCc1ccccc1)CC3	4035	-12.9	2.6	-4.1	-1.6	-9.1	2.6
47	CC(C)C(O)(C#CCN1CCCC1)c1ccccc1 (configuration not stated)	2783	2.0	x	x	-13.3	4.3	-5.9
48	O=C(Nc1ccccc1OC(F)F)c1oc2ccccc2c1COc1ccccc1	7497	3.0	-4.1	-10.8	-16.9	4.6	0.2
49	CC(C)CCNC(=O)/C=C/c1ccc(Br)cc1	2521	-1.3	19.1	7.0	-22.8	6.0	-22.5
50	COc1cccc(-n2c(SCC(=O)Nc3cc(C)on3)nc3c([nH]c4ccccc43)c2=O)c1	6282	6.8	-0.8	10.8	-11.6	9.8	-8.6
51	CC1CCN(c2c(NCc3ccc(C(=O)NCC4COc5ccccc5O4)cc3)c(=O)c2=O)CC1 (configuration not stated)	5640	1.9	9.3	6.6	-21.3	4.4	2.0
52	COc1ccccc1CNC(=O)c1oc2ccc(S(=O)(=O)N3CCOCC3)cc2c1C	3129	1.5	13.7	1.1	-14.1	4.9	-6.6
53	O=C1c2ccccc2C(=O)N1CCn1nc(Cl)nc1Cl	2223	5.8	x	x	-12.3	8.4	-9.6
54	CCCCn1c(N)c(N(CCC(C)C)C(=O)COC(=O)c2ccccc2)c(=O)[nH]c1=O	4718	5.9	-0.8	3.9	-1.4	4.3	-10.9
55	O=C(O)c1ccccc1NCc1cccs1	3641	4.2	2.3	3.0	-5.9	1.6	-3.1
56	COCC(C)n1c(C)cc(C(=O)CSc2nc3ccccc3c(=O)[nH]2)c1C (configuration not stated)	3999	4.1	6.2	8.6	-5.9	9.9	-3.1
57	COC(=O)c1sc(S(=O)(=O)Nc2ccc(C)cc2)c(C(=O)OC)c1C	8694	15.7	6.7	5.8	-19.8	-5.1	2.3
58	COc1ccccc1OCC(=O)NNC(=O)C(=O)N1CCCC1	9752	4.1	0.5	-0.8	-18.6	14.6	-7.5
59	O=C(c1ccco1)n1nc(NCc2ccccc2)nc1NCc1ccccc1	4635	1.0	x	x	-16.9	-1.2	-3.9
60	Cc1ccc(NC(=O)c2cc(NC(=O)C3CC=CCC3C(=O)O)ccc2N2CCOCC2)cc1 (configuration not stated)	3202	4.2	5.1	8.5	-10.7	0.8	-3.5
61	COCCn1c(C)cc(C(=O)COC(=O)CNC(=O)c2ccccc2)c1C	1926	4.8	0.8	-4.7	9.2	3.3	-5.3
62	Cc1ccc(N(CC(=O)NCc2ccc(F)cc2)S(=O)(=O)c2c(C)n[nH]c2C)cc1	5551	-0.5	-15.0	-8.3	5.9	-0.2	6.0
63	CC(CN1CCOCC1)C(=O)c1ccccc1 (configuration not stated)	10526	3.6	5.0	4.1	-40.4	4.3	1.3
64	COc1ccc(Cc2nc(=S)[nH][nH]2)cc1Br	4261	4.4	12.5	4.2	-22.4	4.0	2.0

Compound activity: PubChem, several laboratories

No enrichment for hits; 4% or so of the library scored in one or more.
